D2 PAM: positive allosteric modulators of human D2 dopamine receptor; AID 624464; P14416; DiscoveRx D2 beta-arrestin cells, luminescence, 90 min; 100% = 57 uM dopamine signal; 360,000 tested, 0.23% active; potentiation, % (concentration not given with the values); active = potentiation of 50% or more; inconclusive = 30% to 50%; inactive = 30% or less;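 note: compound concentration not given in the record; tested on top of an EC20 dose of dopamine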
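D2 cells co-treated with compound plus 50 nM dopamine (EC20) for 90 min at 37 deg C to detect potentiation. Beta-arrestin recruitment was read as enzyme-fragment luminescence after 1 h at ambient temperature. Full response was set by 57 uM dopamine.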
gsp antagonist: antagonizes gsp, the McCune-Albright syndrome mutation. gsp-mutant cells, cAMP HTRF, 30 min; control for the full effect not named in the record. Potency, µM (titrated, usually from 76.9 µM), without a hit: at the top dose activity change, negative = inhibition, hits mostly inhibitors. 340,000 tested, 0.4% active. AID 624288; active = falling curve of any shape with a large fitted effect; inconclusive = falling curve, mostly with a smaller effect; inactive = flat or rising curve; cell line not stated here;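 note: intracellular cAMP measured with PDE inhibitor Ro 20-1724 present during compound exposure; potency is the fitted concentration of half-maximal effect; % is set by controls: 0 for no effect and ±100 for the full control effect; nearly all actives have a fitted effect of over 65% in size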
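Cells in G418 medium, seeded 16-24 h, 37C; buffer exchange to DPBS + 1 mM CaCl2, 0.5 mM MgCl2, 0.05% BSA; cpds in DMSO + […] (300 uM stock), 30 min 37C; HTRF cAMP detection.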
CtBP-E1A blk: CtBP/E1A binding inhibition. AlphaScreen GST-E1A/His-CtBP binding, 1536-well; active compounds read low; control for the full effect not named in the record. activity change, % (no concentration beside the values). 340,000 tested, 0.49% active; in the data active means activity change below about -65%; inconclusive means about -30% to -65%; inactive means above about -30%; note: % is set by controls: 0 for no effect and ±100 for the full control effect
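Steps: dispense buffer (Tris pH 8.0, NaCl 300 mM, TCEP 1 mM, BSA, Tween 20); add 5X protein mix (GST-E1A, His-CtBP, 125 nM each); pin 23 nL compound; 2 h at 37 °C, dark; add 5X beads (50 ug/mL); 1 h; read.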
Six1-Eya2 inh: blocks human Six1 binding to Eya2; activity change, % (concentration not given with the values); AID 651725; 360,000 tested, 0.56% active; Q15475+O00167; AlphaScreen GST-Six1/His-Eya2 binding, biochemical; active compounds read low; control for the full effect not named in the record; in the data active = activity change below about -65%; inconclusive = about -30% to -65%; inactive = above about -30%; note: % is set by controls: 0 for no effect and ±100 for the full control effect
Target sequence (O00167 whole entry, looked up): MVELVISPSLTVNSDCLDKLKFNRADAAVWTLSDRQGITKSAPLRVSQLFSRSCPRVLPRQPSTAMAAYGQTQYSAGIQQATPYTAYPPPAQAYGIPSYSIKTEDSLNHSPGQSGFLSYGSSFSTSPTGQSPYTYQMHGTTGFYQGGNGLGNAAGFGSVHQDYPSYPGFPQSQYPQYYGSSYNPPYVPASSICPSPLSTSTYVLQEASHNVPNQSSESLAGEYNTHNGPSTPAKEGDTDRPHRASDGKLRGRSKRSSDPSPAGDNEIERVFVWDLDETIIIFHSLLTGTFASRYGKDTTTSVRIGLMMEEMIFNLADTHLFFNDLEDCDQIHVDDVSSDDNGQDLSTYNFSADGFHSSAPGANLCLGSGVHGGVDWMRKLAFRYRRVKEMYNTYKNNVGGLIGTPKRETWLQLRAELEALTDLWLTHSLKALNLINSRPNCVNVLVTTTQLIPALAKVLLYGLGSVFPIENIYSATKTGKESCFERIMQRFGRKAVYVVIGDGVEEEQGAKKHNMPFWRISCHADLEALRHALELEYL
Target sequence (Q15475 whole entry, looked up): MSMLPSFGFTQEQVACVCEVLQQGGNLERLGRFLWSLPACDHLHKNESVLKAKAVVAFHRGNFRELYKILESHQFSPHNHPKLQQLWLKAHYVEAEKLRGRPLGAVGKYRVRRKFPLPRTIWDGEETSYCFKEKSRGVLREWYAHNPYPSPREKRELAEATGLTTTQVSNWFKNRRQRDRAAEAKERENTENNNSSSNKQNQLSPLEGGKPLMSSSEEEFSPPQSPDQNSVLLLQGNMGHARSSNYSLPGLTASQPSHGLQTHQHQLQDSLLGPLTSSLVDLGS
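Six1/Eya2 binding was read as AlphaScreen signal after compounds were pinned into GST-Six1 plus His-tagged Eya2 (5X stock 250/500 nM) in pH 8.0 Tris/NaCl/TCEP buffer, beads added, then incubated 1 h, 37 C, dark.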
gsp ag: agonists of gsp mutant (McCune-Albright syndrome) | gsp mutant cells, cAMP HTRF, 30 min; control for the full effect not named in the record | 340,000 tested, 0.13% active | Potency, µM (titrated, usually from 76.9 µM), without a hit: at the highest dose activation (cAMP increase), hits mostly activators; active = well fitted activation curve with a large enough effect; inconclusive = small, poorly fitted or top-dose-only effect, or another doubt; inactive = no such curve, though single readings can be large or run the other way; cell line not stated here;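 note: phosphodiesterase inhibitor Ro 20-1724 added with compounds to block cAMP breakdown; potency is the fitted concentration of half-maximal effect; nearly all actives have a fitted effect of over 60% in size; about a fifth of the inactives were tested at one dose only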
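Cells stably selected in G418 were plated at 2000/well, grown 16-24 hr, then given compounds in DMSO with the PDE inhibitor […] (300 uM solution added) for 30 min at 37C; cAMP was read by HTRF.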
D2 ag: activates the human D2 dopamine receptor; P14416; DiscoveRx PathHunter D2 beta-arrestin, luminescence, 90 min; 100% = 57 uM dopamine signal; activation, % (no concentration beside the values); 360,000 tested, 0.084% active; in the data active = activation above about 40%; inconclusive = about 15% to 40%; inactive = below about 15%; note: compound concentration not given in the record; the text of the record calls up to 30% inactive
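DiscoveRx PathHunter D2 beta-arrestin cells (2,100/well) attached overnight, then compound-stimulated 90 min at 37 C in HBSS/10 mM HEPES/0.1% Tween-20 buffer; beta-galactosidase complementation read by luminescence after 1 h at ambient temperature. Dopamine 57 uM final (EC100) as control.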
An asterisk follows results filed as active; ? = inconclusive; · = not tested or not shown; [ ] = dose if it differs, or a comment.

Molecule	D2 PAM	gsp antagonist	CtBP-E1A blk	Six1-Eya2 inh	gsp ag	D2 ag
Cc1ccc(C(=O)CN2C(=O)NC3(CCc4ccccc43)C2=O)c(C)c1 (stereo not drawn)	0	-8%	-2	2	28%[15.4 µM]	-1.4
COc1ccc(S(=O)(=O)N2CCC(NC(=O)c3cccc(F)c3)CC2)cc1	-4	3%	·	-4	-33%	8.1
CCOc1ccc(N/C=C/C(=O)c2ccc3ccccc3c2)c([N+](=O)[O-])c1	-3	1%	-18	-15	-21%	-3.0
COc1ccc(C(C)(NC(C)=O)c2nc(-c3ccc(S(C)(=O)=O)cc3)cs2)cc1 (stereo not drawn)	-8	·	2	8	·	-3.4
O=S(=O)(c1cccc2c(S(=O)(=O)N3CCCC3)cccc12)N1CCCC1	-14	6%	3	-2	-53%[inhibitor]	-4.5
COc1ccccc1N1CCN(C2CC(=O)N(C)C2=O)CC1 (stereo not drawn)	-17	5%	9	0	-4%	2.3
Cc1cc(C(C)(C)C)oc1C(=O)N(CC(=O)NC1CCCC1)c1c(C)cccc1C	-10	-23%	-3	-6	-5%	-2.7
Cc1ccccc1C(O)c1cccnc1 (stereo not drawn)	-19	11%	3	5	5%	-0.5
O=C(CSc1n[nH]c(=O)[nH]c1=O)N1CCCCCC1	-3	5%	9	2	?	-2.1
COc1ccc(C2(CNC(=O)CCC(=O)O)CCCC2)cc1OC	2	3%	-9	6	3%	-0.3
CCCCN(CCCNC(=O)c1ccc2nc(N3CCOCC3)sc2c1)Cc1ccccc1	-42	17%	-1	-3	-10%	-5.8
Brc1ccccc1/C=N/Nc1ccc2ccccc2n1	-33	-12%	9	-6	-15%	-2.6
N#CCCN1C(=O)C2(OCCO2)c2ccccc21	0	-11%	3	2	?	6.6
COC(=O)[C@H](CCSC)NC(=O)NCc1ccc(S(N)(=O)=O)cc1	-14	9%	5	2	20%	2.0
CC(C)Cn1c(N)c(C(=O)CSc2ncnc3sc4c(c23)CCCC4)c(=O)n(C)c1=O	-2	8%	4	11	13%	-0.1

Additional results
Molecule	D2 PAM	gsp antagonist	CtBP-E1A blk	Six1-Eya2 inh	gsp ag	D2 ag
Cc1cc(C(=O)Nc2ccc3c(c2)OCO3)cs1	-23	7%	-11	-3	-33%	-1.7
Cc1ccc2c(c1)C(c1ccncc1)=NNC(c1cccnc1)=N2	8	·	-10	-1	-9%[15.4 µM]	2.0
CCCN1CCC(=O)N([C@H](CSc2ccccc2)Cc2ccccc2)CC1	-22	-1%	0	2	·	-1.0
Cc1ccc2c(CSc3nnc4ccccn34)cc(=O)oc2c1C	-8	-9%	9	7	-11%	-4.5
COc1ccc(C(=O)N/C(=C/c2cccs2)C(=O)NCCCn2ccnc2)cc1OC	5	6%	1	-1	14%	-1.8
O=C(Nc1cc(Sc2ccccn2)cc([N+](=O)[O-])c1)c1cccc(F)c1	-6	-3%	-14	-24	10%	0.5
CN1CCN(S(=O)(=O)c2ccc(NC(=S)NC(=O)C3CCC3)cc2)CC1	-30	0%	2	-3	-38%[inhibitor]	-3.3
CCN(CC)S(=O)(=O)c1ccc(OCCNS(C)(=O)=O)cc1	8	·	10	-4	14%[15.4 µM]	2.5
CCn1cc(C(=O)O)c(=O)c2cc(F)c(N3CCN(C(=S)NC(=O)c4ccccc4Br)CC3)cc21	-10	-12%	-11	-9	-7%[15.4 µM]	-2.0
COc1ccc(NC(=O)Cn2c(=O)n(Cc3ccco3)c(=O)c3ccccc32)cc1	0	-21%	-2	-3	-39%[inhibitor]	-4.2
COc1ccc(/C=N/N(C)C2=NS(=O)(=O)c3ccccc32)cc1	-6	14%	-3	-21	-14%[15.4 µM]	-2.0
Fc1ccc2cc(-c3ccccc3F)ncc2c1	-19	2%	1	22	·	0.2
CCCOc1ccc(N2C(=O)CC(SCCc3nc4ccccc4[nH]3)C2=O)cc1 (stereo not drawn)	-11	?	3	-4	-2%	-3.7
CC(=O)NCCc1ccc(C(=O)COC(=O)c2cccn2C)cc1	-5	8%	-1	-10	-5%[15.4 µM]	-2.5
Cc1ccc(C2=N/C(=C\c3ccc(F)cc3)C(=O)N2)cc1	-4	-13%	·	8	-10%	-3.6

Some of these compounds in order of the CtBP-E1A blk value, ascending.
SMILES,CtBP-E1A blk
O=C(Nc1cc(Sc2ccccn2)cc([N+](=O)[O-])c1)c1cccc(F)c1,-14
Cc1ccc2c(c1)C(c1ccncc1)=NNC(c1cccnc1)=N2,-10
CC(=O)NCCc1ccc(C(=O)COC(=O)c2cccn2C)cc1,-1

More entries:
Molecule	D2 PAM	gsp antagonist	CtBP-E1A blk	Six1-Eya2 inh	gsp ag	D2 ag
Cc1ccc(Cl)cc1N1CCN(C(=O)COc2ccc3c(c2)CCC3)CC1	1	-17%	-2	-3	1%	1.1
Cc1cc(NC(=O)CCC(=O)N(c2ccc(F)cc2)C2(C(=O)NC3CCCCC3)CCCC2)no1	-14	1%	0	20	?	-5.9
COc1ccc(C(=O)O)cc1NC(=S)NC(=O)CSc1ccc(Cl)cc1	0	-10%	-9	-4	1%[15.4 µM]	-0.3
O=C(CN(C(=O)CNS(=O)(=O)c1ccccc1)c1ccc2c(c1)OCCO2)NCc1ccco1	0	1%	0	2	2%	-0.5
Cc1cccn2c(=O)c(C=Nc3ccccc3)c(NCCO)nc12	-1	4%	11	-8	17%	-1.6
Cc1cc(=O)oc2cc(OCC3CC(c4ccccc4)=NO3)ccc12 (stereo not drawn)	-6	5%	4	-1	?	-2.1
O=C1CC[C@@H](OCc2ccccc2)CCN1CC[C@H](Sc1ccccc1)c1ccccc1	-7	-20%	7	2	·	0.1
Cc1ccc(S(=O)(=O)N2CCN(C(=O)COC(=O)c3cc(C)oc3C)CC2)cc1	-23	-2%	-2	0	-39%[inhibitor]	-0.9
Cc1cc(C)c[n+](C(C)C(=O)c2ccc(-c3ccccc3)cc2)c1 (stereo not drawn)	-23	16%	2	7	11%	-1.6
CNC(=S)NCC(O)c1ccc([N+](=O)[O-])cc1 (stereo not drawn)	-8	6%	4	-18	9%[15.4 µM]	-6.0
Cc1cccc(N2CCN(C(=O)CSCc3c(C)noc3C)CC2)c1C	1	?	5	4	-2%	-2.3
Cc1ccc(-c2nc(=S)c3c(n2Cc2ccco2)CC(C)(C)OC3)cc1	-11	2%	-10	-1	?	0.2
COc1cccc2sc(Nc3nnc(-c4ccccc4Cl)o3)nc12	-5	15%	-3	-1	28%	-3.8
O=C(NCCc1cccs1)C1CC1	1	0%	-2	-10	0%[15.4 µM]	-5.1
Cc1ccc(S(=O)(=O)c2nc(-c3cccs3)oc2NCCCN(C)C)cc1	-30	27%	-2	-9	-25%	-2.8

Additional entries follow:
Molecule	D2 PAM	gsp antagonist	CtBP-E1A blk	Six1-Eya2 inh	gsp ag	D2 ag
O=C(c1ccco1)N1C(=O)c2cccc3c(S(=O)(=O)N4CCCC4)ccc1c23	-1	-1%	7	10	-8%	0.8
CSc1nc2c(cc1C#N)CCCCC2	-13	1%	27	15	-22%	-3.1
COc1ccc(-c2nc3c(c4nnc(SC(C)C(=O)Nc5ccccc5)n24)COC(C)(C)C3)cc1 (stereo not drawn)	-11	11%	-5	6	-23%	-3.5
Nc1nnc(-c2cccc([N+](=O)[O-])c2)s1	1	-15%	-2	-2	12%[15.4 µM]	12
CN(c1ccc(Cl)cc1)c1cc2c(c3c1ccn3C)C1CCC2C1 (stereo not drawn)	-7	·	-27	-28	·	-7.4
CCCCCc1c(O)nc(SCCN(CC)CC)[nH]c1=O	-3	-4%	-3	5	7%	-5.6
O=C(COC(=O)c1ccc(Cl)c([N+](=O)[O-])c1)Nc1ccccc1OC(F)F	-19	-10%	-3	-7	3%	-5.0
CC(=O)NC(C)(c1ccccc1)c1nc(-c2cccc(C#N)c2)cs1 (stereo not drawn)	-5	·	-2	1	·	-4.5
O=C(CCCc1ccccc1)NCCS(=O)(=O)N1CCN(c2ccc(F)cc2)CC1	7	4%	-10	-1	-20%	-7.7
Cc1c(C(=O)NC(C)CN2CCCCC2)oc2ccccc12 (stereo not drawn)	-15	10%	-1	1	-57%[inhibitor]	-0.1
O=C(CCc1ccccc1)NC1(Cc2ccccc2)CCN(CCCc2ccccc2)C1=O (stereo not drawn)	-13	-16%	-4	0	·	-3.1
Cc1cc(C)cc(NC(=S)NCc2ccc(F)cc2)c1	-19	3%	-29	-5	1%	-0.7
COc1ccc(/C=C2\C(=N)N3N=C(CC(=O)N4CCOCC4)SC3=NC2=O)cc1	-35	7%	0	0	26%	-5.7
COc1c(C)c2c(c(O)c1C/C=C(\C)CCC(=O)O)C(=O)OC2	-16	-10%	2	4	·	-4.7
CCC(C)(C)NC(=O)C(c1ccc(C)cc1)N(CC1CCCO1)C(=O)CNC(=O)c1cccs1 (stereo not drawn)	1	7%	11	5	6%	0.2

Continuation.
Molecule	D2 PAM	gsp antagonist	CtBP-E1A blk	Six1-Eya2 inh	gsp ag	D2 ag
O=C(NCCOc1ccccc1)c1ccccc1NC(=O)C1CCCO1 (stereo not drawn)	8	9%	12	4	-22%[15.4 µM]	-1.5
CCOC(=O)C1(Cc2cccc(OC)c2)CCN(Cc2cc(OC)ccc2OC)CC1	-19	4%	-18	-19	0%	4.2
CCNC(=O)C1(C)CCN(C(=O)c2cccs2)C1 (stereo not drawn)	-2	·	5	1	·	-4.7
Cc1onc(-c2c(F)cccc2Cl)c1C(=O)ONC(=O)c1ccco1	7	-8%	·	5	17%	-1.5
Cc1nn2c(=O)c(NC(=O)c3ccc(F)cc3)cnc2s1	-5	-1%	7	10	-31%	-4.4
O=S(=O)(NC1CC1)c1ccc(Br)cc1N1CCC[C@H]1CO	-9	-8%	4	2	·	-2.4
Cc1ccc2c(c1)N(CC(=O)N1CCCc3ccccc31)C(=O)C(C)O2 (stereo not drawn)	-2	-4%	0	-3	-91%[inhibitor]	2.3
COc1ccc(NC(=O)CN2c3cccc4cccc(c34)S2(=O)=O)cc1OC	-10	·	-3	-16	-49%[inhibitor]	-0.7
COc1ccc(OC(C)C(=O)N(C)Cc2nc(-c3ccc(C)cc3)no2)cc1 (stereo not drawn)	-8	2%	-10	23	-10%[15.4 µM]	1.8
CCOC(=O)c1cccc(NC(=O)c2ccc(-n3cnnn3)cc2)c1	-5	8%	0	6	20%	-0.8
O=S1(=O)CCO[C@H]2Cc3ccccc3[C@H]2N1Cc1ccc(F)cc1	-1	6%	34	30	·	1.9
CCCOC(=O)c1ccc(NS(=O)(=O)c2cccs2)cc1	8	-15%	4	1	-27%	-4.5

Source: PubChem BioAssay (National Center for Advancing Translational Sciences (NCATS))
